HNF4A DNA FP = change in binding of human HNF4 alpha to DNA; HNF4a-FITC DNA binding, fluorescence polarization, 1 h; activity change, % at 10 µM; 360,000 compounds, 0.3% hits; in the data active means activity change above about 30%, passing the limit was not always enough;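 further: controls were the assay level and a saturating level of protein; the project sought stronger binding though the title names inhibitors; some compounds called inactive have numbers as strong as hits; positive values seem to mean higher polarization but the record does not say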
Vif A3G = inhibitors of Vif binding to APOBEC3G peptide, primary screen, biochemical, TR-FRET, GST-Vif 1-94, biotin-A3G peptide, dose response retest (AID 1117319); TR-FRET GST-Vif / biotin-A3G peptide binding; higher % means a stronger effect; test concentration not given here; strong numbers were not always called active; 260,000 compounds, 0.57% hits; inhibition, %; hits with a dose series show IC50 in µM;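 active means above the screen mean plus three standard deviations and confirmed in dose response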;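 further: Vif residues 1-94 fused to GST binding biotinylated APOBEC3G peptide 110-148; 0% = full assay without inhibitor and 100% = GST in place of GST-Vif; retest series ran down from 100 µM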
ALR H2O2 inh = inhibitors of human sulfhydryl oxidase ALR. AID 485317. inhibition, % (no concentration beside the values). 290,000 compounds, 3.8% hits. purified ALR, DTT oxidation, H2O2 HRP-luminol luminescence. P55789;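 active means mean and each replicate at 75% or more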;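 further: stock transfer was 7.5 nL into about 7.5 µL; 0% = neutral wells and 100% = wells with inactivated enzyme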
Target sequence (P55789 whole entry, looked up): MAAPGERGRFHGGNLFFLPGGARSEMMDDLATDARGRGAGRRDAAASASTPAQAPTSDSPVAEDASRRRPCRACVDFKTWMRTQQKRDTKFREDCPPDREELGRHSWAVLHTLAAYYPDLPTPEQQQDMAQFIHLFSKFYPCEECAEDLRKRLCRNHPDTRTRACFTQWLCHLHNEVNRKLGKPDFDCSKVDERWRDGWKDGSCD
rRNA inh HTS = inhibitors of bacterial rRNA selective over humanized ribosomes | E. coli WT GFP vs humanized-ribosome RFP mutants, fluorescence, 24 h; hits give low values; DMSO median 0, no signal -100 | GFP signal change (wild-type ribosome), % (test concentration not listed) | 350,000 compounds, 1.6% hits | AID 720706;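 active means significant combined selectivity score with lowered wild-type GFP, culture density cut under 30%, mutant RFP and density less affected; inactive means any of these conditions unmet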; further: one replicate is shown; some compounds called inactive have numbers as strong as hits
AF4-AF9 inh = inhibitors of human MLL-AF4/AF9 interaction | 350,000 compounds, 0.47% hits | AlphaScreen, biotin-AF4 peptide binding to FLAG-AF9 | AID 651704 | inhibition, % at 10 µM;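 active means every replicate reaching a set inhibition limit, whatever the replicate mean, cut at about 25% in these data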;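 further: 0% = plate neutral control median and 100% = total signal loss; the record names both 10 and 1 µM as test concentration; the first replicate is given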
Target sequence (P42568 whole entry, looked up): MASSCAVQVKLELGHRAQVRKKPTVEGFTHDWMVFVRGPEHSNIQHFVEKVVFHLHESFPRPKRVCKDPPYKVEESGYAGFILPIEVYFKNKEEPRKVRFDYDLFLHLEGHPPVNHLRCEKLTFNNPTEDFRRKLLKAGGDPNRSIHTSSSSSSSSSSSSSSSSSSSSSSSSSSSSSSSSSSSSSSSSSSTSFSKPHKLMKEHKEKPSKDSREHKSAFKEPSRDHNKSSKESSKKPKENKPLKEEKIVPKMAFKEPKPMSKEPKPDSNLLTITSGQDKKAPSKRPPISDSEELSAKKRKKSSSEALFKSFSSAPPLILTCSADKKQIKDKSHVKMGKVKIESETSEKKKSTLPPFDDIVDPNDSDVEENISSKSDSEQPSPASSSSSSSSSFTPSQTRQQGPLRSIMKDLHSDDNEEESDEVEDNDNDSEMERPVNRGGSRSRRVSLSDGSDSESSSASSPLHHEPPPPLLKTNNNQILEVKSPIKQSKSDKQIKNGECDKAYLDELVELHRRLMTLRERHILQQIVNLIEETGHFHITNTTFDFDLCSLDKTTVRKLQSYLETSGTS
E coli growth = E. coli growth inhibition | 330,000 compounds, 0.21% hits | AID 1053175 | OD600 absorbance (concentration not given with the values) | Escherichia coli growth, OD600, 23 h; hits give low values;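 active means OD600 absorbance below the run mean of sample wells minus 3.6 SD, in any replicate, cut at about 0.56 in these data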;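 further: stock transfer was 300 nL into about 60 µL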
FGF22 binding = binders of recombinant human FGF22 by thermal shift; AID 651658; 340,000 compounds, 1.5% hits; SYPRO orange fluorescence; percent of sucrose octasulfate shift, DMSO zero; calls only at 9.99 µM;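 active means melting point raised past a set limit in the mean and every replicate; three in four hits are not shown here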
Target sequence (Q9HCT0 whole entry, looked up): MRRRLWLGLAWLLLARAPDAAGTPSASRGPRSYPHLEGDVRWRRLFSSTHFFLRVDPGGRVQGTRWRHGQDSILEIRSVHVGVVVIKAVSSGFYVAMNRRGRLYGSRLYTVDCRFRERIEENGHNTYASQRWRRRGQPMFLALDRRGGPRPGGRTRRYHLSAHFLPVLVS
rRNA inh HTS OD600 = further read-out of rRNA inh HTS, marked with its call; OD600 change, %; measured here: OD600 growth;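 optical density of the mix in the first replicate; 0 = DMSO median and -100 = no signal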
rRNA inh HTS RFP = also measured in rRNA inh HTS; calls as there; RFP signal change, %; measured here: RFP humanized mutant strains;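 first replicate; 0 = DMSO median and -100 = no signal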
Numbers without * were called inactive.

How did COc1ccc(Sc2cccc3c2S(=O)(=O)N([C@H](C)c2ccccc2)C[C@@H](COCc2ccccc2)O3)cc1OC do in these assays?
rRNA inh HTS: 12; AF4-AF9 inh: -1.8; FGF22 binding: inactive; rRNA inh HTS OD600: 11; rRNA inh HTS RFP: 3.8

How did N#Cc1nc(Cc2cccc3ccccc23)oc1NCc1ccc(F)cc1 do in these assays?
HNF4A DNA FP: -0.6; Vif A3G: 77%; ALR H2O2 inh: -10; E coli growth: 0.64

Results for O=C(CC1CC1)N1CC2(C1)[C@@H](c1ccccc1)[C@@H](CO)N2S(=O)(=O)Cc1ccccc1 ?
rRNA inh HTS: 1; AF4-AF9 inh: -0.5; FGF22 binding: active; rRNA inh HTS OD600: 0; rRNA inh HTS RFP: 1.7

Results for O=C(CSc1nc2ccccc2c(=O)n1-c1ccc(Cl)cc1)c1ccco1 ?
HNF4A DNA FP: 1.4; Vif A3G: -2%; ALR H2O2 inh: -6; E coli growth: 0.79

Results for COc1ccc(OC)c(C2CC(=O)N3CN(c4cccc(Cl)c4)CSC3=C2C#N)c1 (configuration not stated) ?
HNF4A DNA FP: -1.9; Vif A3G: 10%; ALR H2O2 inh: -5; rRNA inh HTS: 1; AF4-AF9 inh: -0.7; E coli growth: 0.73; FGF22 binding: inactive; rRNA inh HTS OD600: 6; rRNA inh HTS RFP: 1.2

Results for CC(=O)Nc1ccnn1C1CCN(C(=O)c2cccc(C)c2C)CC1 ?
HNF4A DNA FP: 2.4; ALR H2O2 inh: -4; rRNA inh HTS: 5; AF4-AF9 inh: 0.0; E coli growth: 0.71; FGF22 binding: inactive; rRNA inh HTS OD600: 13; rRNA inh HTS RFP: -0.4

Results for Cc1ccc(/C=C/C(=O)c2ccc(O)cc2)cc1 ?
HNF4A DNA FP: -0.1; ALR H2O2 inh: 11; rRNA inh HTS: -27*; AF4-AF9 inh: 2.3; FGF22 binding: inactive; rRNA inh HTS OD600: -13*; rRNA inh HTS RFP: -6.4*

What do the screens show for `O=C(C1CCCCC1)N1C[C@H]2[C@@H](c3ccccc31)[C@@H](CO)N2Cc1ccccc1Cl`?
rRNA inh HTS: -60; AF4-AF9 inh: 1.0; FGF22 binding: inactive; rRNA inh HTS OD600: -76; rRNA inh HTS RFP: -12

What do the screens show for `O=C(Nc1ccc(Cl)cc1)Nc1cnccn1`?
HNF4A DNA FP: -0.5; Vif A3G: -2%; E coli growth: 0.66

How did CC(C)OC(=O)C(C(=O)C(F)(F)F)c1cc(NS(=O)(=O)c2ccc3ccccc3c2)c2ccccc2c1O (configuration not stated) do in these assays?
HNF4A DNA FP: -2.9; Vif A3G: 5%; E coli growth: 0.67

Results for CC1CCN(C(=O)Cn2c3ccccc3c3nc4n(c(=O)c32)CCS4)CC1 ?
HNF4A DNA FP: 2.1; Vif A3G: 7%; rRNA inh HTS: 2; AF4-AF9 inh: -0.5; E coli growth: 0.69; FGF22 binding: inactive; rRNA inh HTS OD600: 10; rRNA inh HTS RFP: 0.4

What do the screens show for `Cc1cc(C)n(C(=O)Cn2nc([N+](=O)[O-])cc2C)n1`?
HNF4A DNA FP: -4.4; Vif A3G: 5%; ALR H2O2 inh: -1; rRNA inh HTS: 16; AF4-AF9 inh: 1.6; E coli growth: 0.69; FGF22 binding: inactive; rRNA inh HTS OD600: 5; rRNA inh HTS RFP: -5.1

What do the screens show for `CCc1cc(-c2onc(C)c2-c2cscn2)c(O)cc1OC`?
HNF4A DNA FP: -1.8; Vif A3G: 18%; ALR H2O2 inh: 50; rRNA inh HTS: -53; AF4-AF9 inh: -3.8; E coli growth: 0.7; FGF22 binding: inactive; rRNA inh HTS OD600: -76; rRNA inh HTS RFP: -17

How did COc1cccc(CC(C(=O)Nc2cc(C)ccc2C)c2nn[nH]n2)c1OC (configuration not stated) do in these assays?
HNF4A DNA FP: 3.0; Vif A3G: 3%; ALR H2O2 inh: -7; E coli growth: 0.65

How did CN(CCOc1ccc(Br)cc1)CC(O)c1ccccc1 (configuration not stated) do in these assays?
HNF4A DNA FP: 1.9; Vif A3G: 0%; rRNA inh HTS: -4; AF4-AF9 inh: 2.2; E coli growth: 0.61; FGF22 binding: inactive; rRNA inh HTS OD600: -11; rRNA inh HTS RFP: -2.8

How did CCN(CC)CCn1c2c(c(SCC(=O)Nc3nc4ccccc4s3)nc1=O)CCC2 do in these assays?
HNF4A DNA FP: 0.2; Vif A3G: -1%; ALR H2O2 inh: 98*; rRNA inh HTS: -5; AF4-AF9 inh: -41; E coli growth: 0.68; FGF22 binding: inactive; rRNA inh HTS OD600: 1; rRNA inh HTS RFP: 4.4

How did CC(Sc1cccc(C(F)(F)F)c1)C(=O)NC(N)=O (configuration not stated) do in these assays?
HNF4A DNA FP: 0.1; Vif A3G: 26%; ALR H2O2 inh: -20; E coli growth: 0.66

How did CCC(O)(CCN1CCCCC1)c1ccccc1 (configuration not stated) do in these assays?
HNF4A DNA FP: -1.0; Vif A3G: 17%; ALR H2O2 inh: -11; E coli growth: 0.76

What do the screens show for `Cc1cccc(N(C(=O)c2snc(C(N)=O)c2N)C(C(=O)NCC2CCCO2)c2ccc(N(C)C)cc2)c1C` (configuration not stated)?
HNF4A DNA FP: 5.5; Vif A3G: 5%; ALR H2O2 inh: 8; rRNA inh HTS: 3; AF4-AF9 inh: -2.7; FGF22 binding: inactive; rRNA inh HTS OD600: 10; rRNA inh HTS RFP: 1.7

What do the screens show for `CC(C)(C)c1cc(N/C=C\c2nnnn2-c2ccc(Br)cc2)no1`?
HNF4A DNA FP: 4.0; Vif A3G: 74%; ALR H2O2 inh: -3; E coli growth: 0.73

How did Cc1cccc(N2CCN(C(=O)c3c(-c4ccccc4Cl)noc3C)CC2)c1C do in these assays?
HNF4A DNA FP: 3.9; ALR H2O2 inh: -16; rRNA inh HTS: -4; AF4-AF9 inh: 1.1; FGF22 binding: inactive; rRNA inh HTS OD600: -24; rRNA inh HTS RFP: 0.4

How did COc1ccc(S(=O)(=O)N(C)C[C@@H]2OCCCC[C@@H](C)Oc3ccc(NC(=O)NC4CCCCC4)cc3C(=O)N([C@@H](C)CO)C[C@@H]2C)cc1 do in these assays?
rRNA inh HTS: 4; AF4-AF9 inh: 1.7; FGF22 binding: inactive; rRNA inh HTS OD600: 8; rRNA inh HTS RFP: -0.6

How did Cc1cc(C)nc(N2CCCC(C(=O)NCCc3ccc(F)cc3)C2)n1 (configuration not stated) do in these assays?
HNF4A DNA FP: -1.6; Vif A3G: 0%; ALR H2O2 inh: 1; E coli growth: 0.8

Results for CCCCc1ccc(NS(=O)(=O)c2cccs2)cc1 ?
HNF4A DNA FP: 13; Vif A3G: 4%; ALR H2O2 inh: -24; E coli growth: 0.68

2 records picked at random from the list so far, as already listed:
What do the screens show for `CC(C)(C)c1cc(N/C=C\c2nnnn2-c2ccc(Br)cc2)no1`?
HNF4A DNA FP: 4.0; Vif A3G: 74%; ALR H2O2 inh: -3; E coli growth: 0.73

How did CC(Sc1cccc(C(F)(F)F)c1)C(=O)NC(N)=O (configuration not stated) do in these assays?
HNF4A DNA FP: 0.1; Vif A3G: 26%; ALR H2O2 inh: -20; E coli growth: 0.66

Next part
How did CCOc1cc(C(=O)NCc2ccc(-c3nc4ccccc4o3)cc2)cc(OCC)c1OCC do in these assays?
HNF4A DNA FP: 1.3; Vif A3G: -2%; ALR H2O2 inh: 0; E coli growth: 0.67

How did O=C(Nc1ccc(Cl)cc1)c1cccc(OC(=S)N2CCOCC2)c1 do in these assays?
HNF4A DNA FP: -1.6; Vif A3G: -4%; ALR H2O2 inh: -10; rRNA inh HTS: -5; AF4-AF9 inh: 2.1; E coli growth: 0.69; FGF22 binding: inactive; rRNA inh HTS OD600: -5; rRNA inh HTS RFP: 3.4

How did Cc1ccc(-n2c(SCC(=O)N(C)C)nnc2-c2ccco2)cc1 do in these assays?
HNF4A DNA FP: -3.5; Vif A3G: -3%; ALR H2O2 inh: -8; rRNA inh HTS: -3; AF4-AF9 inh: -2.5; E coli growth: 0.67; FGF22 binding: inactive; rRNA inh HTS OD600: 2; rRNA inh HTS RFP: 1.0

How did CCC(CC)c1nnc(NC(=O)C23CC4CC(CC(NC(C)=O)(C4)C2)C3)s1 do in these assays?
HNF4A DNA FP: -0.8; ALR H2O2 inh: -2; rRNA inh HTS: -4; AF4-AF9 inh: -0.7; E coli growth: 0.7; FGF22 binding: inactive; rRNA inh HTS OD600: -9; rRNA inh HTS RFP: 4.7

How did COc1ccc(-c2nc3ccccc3s2)cc1 do in these assays?
HNF4A DNA FP: 2.5; Vif A3G: 10%; rRNA inh HTS: -5; AF4-AF9 inh: -4.8; E coli growth: 0.69; FGF22 binding: inactive; rRNA inh HTS OD600: -3; rRNA inh HTS RFP: -3.7

How did CCOc1ccc(CCNC(=O)c2cccc(S(=O)(=O)N3CCCCC3)c2)cc1OCC do in these assays?
HNF4A DNA FP: -1.8; Vif A3G: -3%; ALR H2O2 inh: -6; rRNA inh HTS: 8; AF4-AF9 inh: -6.2; E coli growth: 0.7; FGF22 binding: inactive; rRNA inh HTS OD600: 3; rRNA inh HTS RFP: -2.4

Results for CCn1cc(C(=O)O)c(=O)c2cnc(N3CCN(C(=S)NC(=O)c4ccc(Cl)cc4)CC3)nc21 ?
Vif A3G: -9%; ALR H2O2 inh: 1; E coli growth: 0.43*

What do the screens show for `CCc1ccc(NC(=O)CCCN2C(=O)C3CC=CCC3C2=O)cc1` (configuration not stated)?
HNF4A DNA FP: 0.7; ALR H2O2 inh: -2; rRNA inh HTS: -3; AF4-AF9 inh: -12; E coli growth: 0.76; FGF22 binding: inactive; rRNA inh HTS OD600: -10; rRNA inh HTS RFP: 0.1

How did CCOc1cccc(=O)c2c(C)n(-c3ccc(C(=O)O)cc3)c(C)c12 do in these assays?
HNF4A DNA FP: -42; Vif A3G: 4.5µM*; ALR H2O2 inh: 96*; rRNA inh HTS: 13; AF4-AF9 inh: -3.5; E coli growth: 0.69; FGF22 binding: inactive; rRNA inh HTS OD600: 11; rRNA inh HTS RFP: 18

Results for CCCN(C)C[C@@H]1Oc2ncc(C#CCOC)cc2C(=O)N([C@@H](C)CO)C[C@@H]1C ?
rRNA inh HTS: 8; AF4-AF9 inh: -2.0; FGF22 binding: inactive; rRNA inh HTS OD600: 12; rRNA inh HTS RFP: -0.3

Results for CC1=NN(c2ccccc2)C(=O)/C1=C/c1cc(C)n(C2CC2)c1C ?
HNF4A DNA FP: 3.1; Vif A3G: -1%; ALR H2O2 inh: -7; rRNA inh HTS: 14; AF4-AF9 inh: 5.9; E coli growth: 0.66; FGF22 binding: inactive; rRNA inh HTS OD600: 0; rRNA inh HTS RFP: 2.3

Results for COc1cccc(S(=O)(=O)N[C@@H]2CC[C@H](CC(=O)NC3CCC3)O[C@H]2CO)c1 ?
rRNA inh HTS: 2; AF4-AF9 inh: 0.7; FGF22 binding: inactive; rRNA inh HTS OD600: 10; rRNA inh HTS RFP: -1.3

Among those listed so far, these contain a furan ring, fused or not.
Results for O=C(CSc1nc2ccccc2c(=O)n1-c1ccc(Cl)cc1)c1ccco1 ?
HNF4A DNA FP: 1.4; Vif A3G: -2%; ALR H2O2 inh: -6; E coli growth: 0.79

How did Cc1ccc(-n2c(SCC(=O)N(C)C)nnc2-c2ccco2)cc1 do in these assays?
HNF4A DNA FP: -3.5; Vif A3G: -3%; ALR H2O2 inh: -8; rRNA inh HTS: -3; AF4-AF9 inh: -2.5; E coli growth: 0.67; FGF22 binding: inactive; rRNA inh HTS OD600: 2; rRNA inh HTS RFP: 1.0

High-throughput results as filed in PubChem BioAssay.

An excerpt. The share of hits here may be higher or lower than overall.
